Screening data: PubChem, several laboratories
Hsc70 – Hsc70 inhibitors, probe displacement, primary screen, biochemical, fluorescence polarization (AID 568) | Hsc70 fluorescence polarization, probe displacement; higher % means a stronger effect; strong numbers were not always called active | displacement, % at 20 µM, or IC50 in µM where a hit was titrated | 83,000 tested, under 10 active;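 active = displacement above 50% without optical interference and an IC50 on retest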;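 note: ATPase domain with a fluorescein-tagged ATP probe; 0% = vehicle and 100% = excess ADP; read after one hour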
MT1-MMP reporter – MT1-MMP gene expression reporter suppression – cell-based, luciferase reporter, luminescence (AID 618); 0.62% of 87,000 active; MT1-MMP promoter luciferase reporter cells, luminescence; calls from a first round at 10 µM; hits with a dose series show EC50 in µM;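 active = over half of the reporter light lost at 10 µM or EC50 under 50 µM; inactive = the rest and hits that failed the dose series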;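 note: actives suppress MT1-MMP promoter-driven transcription so potencies describe inhibitors; HT1080 fibrosarcoma cells; overnight exposure; toxic or luciferase-blocking compounds were not removed from the actives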
WNV protease inh – blocks West Nile virus NS2B-NS3 protease activity; AID 577; 0.18% of 65,000 active; P06935; WNV NS2B-NS3 protease, fluorogenic substrate Ex360/Em465; stronger effect = lower value; z-score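 (tested at a level between 10 and 100 µM)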;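 active = z-score at -3 or under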;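 note: score is relative to mean and spread of the compound wells of a plate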
Target sequence (P06935 1371-1501 limits assumed): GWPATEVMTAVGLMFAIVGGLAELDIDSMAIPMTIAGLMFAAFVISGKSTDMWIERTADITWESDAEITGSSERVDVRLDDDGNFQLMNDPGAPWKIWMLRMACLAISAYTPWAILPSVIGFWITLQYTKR
Target sequence (P06935 1502-1679 limits assumed): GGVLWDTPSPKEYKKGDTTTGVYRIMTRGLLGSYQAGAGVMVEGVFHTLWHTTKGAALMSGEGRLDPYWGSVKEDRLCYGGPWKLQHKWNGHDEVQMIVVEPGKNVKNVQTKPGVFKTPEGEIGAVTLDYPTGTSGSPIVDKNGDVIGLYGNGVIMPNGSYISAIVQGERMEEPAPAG
* hit, by the source's call; i = inactive; nt = no result given. Only part of the results is shown (hit frequency here may not be typical).

Compound | Hsc70 | MT1-MMP reporter | WNV protease inh
O=C(Cn1cnc2c(nnn2Cc2ccc(Cl)cc2)c1=O)N1CCCc2ccccc21 | -1.2% | i | -0.89
CN(C)CCSc1nnc2sc3ccccc3n12 | -2.7% | i | 0.06
CCCCn1c(SCC(=O)c2ccc(OC)c(OC)c2)nc2cc(S(N)(=O)=O)ccc21 | 4.6% | i | nt
NC(=O)c1oc2ccccc2c1NC(=O)c1ccc(F)cc1 | -0.3% | i | 0.18
COc1cccc(-c2noc(C3CCCN(S(=O)(=O)c4cccc(Cl)c4C)C3)n2)c1 (stereo not given) | -2.7% | i | 0.45
CC1(C)OC(=O)N(CCc2ccccc2)C1(C)O (stereo not given) | 1.8% | i | -1.1
CCCCCCSC1=C(C#N)C(=O)NC2(CCCCC2)S1 | -1.2% | i | nt
COc1ccc(C(=O)N(c2ccccc2)C2C=CS(=O)(=O)C2)cc1 (stereo not given) | -2.0% | i | -0.42
Cc1ccc(CCP(=O)(O)CN2CCOCC2)cn1 | -5.8% | i | -0.18
COC(=O)C1(C(F)(F)F)N=C2Sc3ccccc3N2C(N2CCOCC2)=N1 (stereo not given) | 0.3% | i | 0.65
N=c1c2c3c(sc2ncn1CCN1CCOCC1)CCCC3 | 5.5% | i | -0.64
CCOc1ccc2nc(SCC(=O)Nc3ncccn3)[nH]c2c1 | 2.7% | i | 0.67
O=C(Nc1ccc(Oc2ccccc2)cc1)c1cnc2n(c1=O)CCS2 | -2.2% | i | 1.5
Cc1cc(N2CCN(c3nc(N4CCOCC4)nc4ccccc34)CC2)c2ccccc2n1 | 5.0% | i | -0.1
O=C(c1cccc(S(=O)(=O)N2CCCC2)c1)c1cccc(S(=O)(=O)N2CCCC2)c1 | -4.3% | i | -0.41
COc1ccc(C(=O)N2CCN(Cc3cc(OC)c(O)c(OC)c3)CC2)cc1OC | -0.7% | i | -1.4
O=C(NCCN1CCOCC1)C1CCC(=O)N1C1CCCCC1 (stereo not given) | -2.0% | i | -0.64
CCC(C)c1ccc(O)c(NC(=O)c2cncc(Br)c2)c1 (stereo not given) | -1.1% | i | -0.72
Cn1c(=O)c2c(nc(CN3CCN(Cc4ccccc4)CC3)n2Cc2ccccc2)n(C)c1=O | 4.2% | i | 0.34
COc1ccccc1N1CCN(C(CNC(=O)C2CCCCC2)c2cccnc2)CC1 (stereo not given) | 3.7% | i | -1.1
COC(=O)c1ccc(CN(C)S(=O)(=O)c2ccc(C)cc2)o1 | 0.9% | i | 2.6
CCOc1ccccc1-c1nc(-c2cc3ccc(C)cc3[nH]c2=O)no1 | 3.3% | i | 2
Cc1nc(=O)c(-c2ccccc2)c(C)n1-c1ccccc1C(=O)O | -3.8% | i | 0.81
COc1ccc(S(=O)(=O)N[C@@H](Cc2ccccc2)C(=O)N2CC[C@@]3(O)CCCC[C@H]3C2)cc1 | -0.3% | i | 0.22
COc1ccccc1-c1nnc(-c2ccc(N3CCOCC3)cc2)o1 | 1.1% | i | nt
CC1(C)C2([N+](=O)[O-])CN(CCO)CC1([N+](=O)[O-])CN(CCO)C2 | -0.6% | i | nt
CC(=O)N(C)C1(c2nnnn2CCOC(=O)Nc2cccc3ccccc23)CCCC1 | 1.0% | i | 0.35
Cc1cc(NC(=O)COC(=O)c2ccc(NS(=O)(=O)c3ccc(C)c(C)c3)cc2)no1 | -1.2% | i | nt
COc1ccc(S(=O)(=O)n2nc(OC(=O)c3ccc(C)cc3)cc2N)cc1 | -2.6% | i | -0.72
CCOC(=O)CSc1nc2cc(C(=O)N3CCC(C(N)=O)CC3)ccc2c(=O)n1-c1ccccc1 | 6.9% | i | 0.19

Another view of part of the listing above:
CCOc1ccccc1-c1nc(-c2cc3ccc(C)cc3[nH]c2=O)no1
- Hsc70: 3.3%
- MT1-MMP reporter: i
- WNV protease inh: 2

Cc1nc(=O)c(-c2ccccc2)c(C)n1-c1ccccc1C(=O)O
- Hsc70: -3.8%
- MT1-MMP reporter: i
- WNV protease inh: 0.81

COc1ccc(S(=O)(=O)N[C@@H](Cc2ccccc2)C(=O)N2CC[C@@]3(O)CCCC[C@H]3C2)cc1
- Hsc70: -0.3%
- MT1-MMP reporter: i
- WNV protease inh: 0.22

New compounds follow:
Compound | Hsc70 | MT1-MMP reporter | WNV protease inh
Cc1ccc(CCC(=O)Nc2nccs2)o1 | -1.1% | i | -0.92
CC1(C)NC(=O)N(CC(O)COc2ccccc2C(=O)Nc2ccccc2)C1=O (stereo not given) | 1.4% | i | 0.82
Cc1cc(C(=O)CSc2nnc(N)s2)c(C)n1CCc1ccc(Cl)cc1 | -2.9% | i | -0.17
COc1ccc(NC(=O)CN2CCC(C)CC2)cc1 | 1.7% | i | 0.28
Cc1nc2ccc(Br)cn2c1NC(C)(C)C | 1.3% | i | -0.35
O=C(O)CCn1c(=O)sc2ccccc21 | 0.9% | i | 0.36
COc1ccccc1N1C(=O)CC(N2CCc3ccccc32)C1=O (stereo not given) | -2.0% | i | 1.1
CCOC(=O)[C@H]1CCC[C@@H](NS(=O)(=O)c2ccc(NC(C)=O)cc2)C1 | -4.8% | i | -0.17
Cc1cccc(CS(=O)(=O)Cc2ccc(C(=O)NCCN3CCCCC3C)o2)c1 (stereo not given) | 0.0% | i | -0.99
Nc1ccccc1SCC(=O)N1CCc2ccccc21 | -8.0% | i | 1.1

Next section
Results follow in this order: Hsc70, MT1-MMP reporter, WNV protease inh
Cc1cc(C)c(S(=O)(=O)Nc2ccc(O)cc2)cc1C
    2.0%, i, 1.1
CC(C)(C)S(=O)(=O)c1nc2ccccc2s1
    0.8%, i, nt
O=c1[nH]cc(COCc2ccccc2)c(=O)[nH]1
    -5.8%, i, -0.86
O=C(Nc1nc(-c2ccc(S(=O)(=O)N3CCCC3)cc2)cs1)c1ccco1
    0.0%, i, -0.17
COCC(=O)N(c1ccc(C(C)C)cc1)C1C=CS(=O)(=O)C1 (stereo not given)
    -1.8%, i, -1.1
CCOC(=O)C1C(=O)CC(C)(O)C(C(=O)OCC)C1c1cc(Br)ccc1OC (stereo not given)
    -2.4%, i, -0.2
O=C1c2ccccc2N(Cc2ccc(Cl)cc2)C2=NCCN12
    -0.7%, i, 1.4
CCN(CC)C(=O)c1cccc2c1C(=O)c1ccccc1-2
    -2.3%, i, nt
C=CCNC(=O)c1ccncc1
    1.8%, i, -0.33
Cc1nnc(SCc2cnc(-c3ccccc3)o2)[nH]c1=O
    -5.1%, i, 0.28
CCCCNC(=O)c1ccc(N2CCOCC2)c(NS(=O)(=O)c2ccc(OC)cc2)c1
    1.3%, i, 0.21
COc1ccccc1-n1c(SCC(=O)Nc2ccc(F)cc2)nc2c(c1=O)SCC2
    1.9%, i, -0.42
CCc1ccc2[nH]c(=O)c(CN(Cc3ccccc3)Cc3nnnn3Cc3ccco3)cc2c1
    -3.7%, i, 0.19
O=C(CC(c1ccccc1)c1ccccc1)NCc1cccnc1
    -1.5%, i, nt
CC(=O)Oc1ccc(C(=O)Nc2nnc(C)s2)cc1
    4.1%, i, -0.46
CCOc1cc(-c2nc(-c3ccc(C)nc3OC)no2)cc(OCC)c1OCC
    -2.3%, i, -0.24
COc1ccc(C(=O)Nc2cccc(C)c2)cc1
    0.4%, i, 0.34
Oc1oc(-c2ccco2)nc1C=Nc1ccccc1
    2.8%, i, -0.7
Cc1oc(C(=O)O)cc1COc1ccc2c3c(c(=O)oc2c1C)CCC3
    6.0%, i, nt
COc1ccc(S(=O)(=O)N2CCCC(C(=O)O)C2)cc1Cl (stereo not given)
    2.3%, i, 0.68
CCOc1ccc2cc(S(=O)(=O)n3ccnc3C)ccc2c1
    -0.7%, i, 2.6
CS(=O)(=O)Nc1ccccc1C(=O)NCc1ccco1
    -4.0%, i, 0.21
Cc1nn(-c2cc(N3CCCCC3)ccc2[N+](=O)[O-])c(=O)c2ccccc12
    1.1%, i, nt
Cn1c(CN2CCOCC2)nnc1SCC(=O)NCCc1ccccc1
    1.7%, i, 0.35
COc1ccc(OC)c(NC(=O)C2C3C=CC(C3)C2C(=O)NCc2ccccn2)c1 (stereo not given)
    1.5%, i, 0.03
CC(C)(C)NC(=O)NC(=O)COC(=O)COc1ccc2c(c1)CCC2
    2.8%, i, -0.72
CC(=O)Nc1cccc(NC(=O)C2CC(=O)N(c3ccc(C)cc3)C2)c1 (stereo not given)
    -3.7%, i, -0.83
COc1cc(OC)cc(C(=O)N2CCN(Cc3cccc(F)c3)CC2)c1
    -4.3%, i, 0.65
CN(C)S(=O)(=O)c1ccc(/C(O)=C2/C(=O)C(=O)N(CCN3CCCCC3)C2c2cccnc2)cc1 (stereo not given)
    -1.4%, i, 0.96
CCN(CC)S(=O)(=O)c1cccc(C(=O)N2CC(O)CC2C(=O)O)c1 (stereo not given)
    -6.2%, i, 0.9

At a glance, four of the compounds above:
Results follow in this order: Hsc70, MT1-MMP reporter, WNV protease inh
CC(=O)Nc1cccc(NC(=O)C2CC(=O)N(c3ccc(C)cc3)C2)c1 (stereo not given)
    -3.7%, i, -0.83
COc1cc(OC)cc(C(=O)N2CCN(Cc3cccc(F)c3)CC2)c1
    -4.3%, i, 0.65
CN(C)S(=O)(=O)c1ccc(/C(O)=C2/C(=O)C(=O)N(CCN3CCCCC3)C2c2cccnc2)cc1 (stereo not given)
    -1.4%, i, 0.96
CCN(CC)S(=O)(=O)c1cccc(C(=O)N2CC(O)CC2C(=O)O)c1 (stereo not given)
    -6.2%, i, 0.9

Continued:
Results follow in this order: Hsc70, MT1-MMP reporter, WNV protease inh
COc1ccc(NC(=O)C2CCCN(C(=O)NC3CCCCC3)C2)cc1OC (stereo not given)
    -0.4%, i, 0.23
CN1CCCC(OC(=O)c2cc(Cl)ccc2Cl)C1 (stereo not given)
    -6.2%, i, 0.45
Cc1ccc2cccc(S(=O)(=O)NC3CCS(=O)(=O)C3)c2n1 (stereo not given)
    6.9%, i, -1.4
COc1ccc(C(=S)N2CCCC2)cc1C
    -2.6%, i, -0.15
Cc1ccc(C2CC(c3cccc(Br)c3)Nc3nnnn32)cc1 (stereo not given)
    1.8%, i, -0.16
CC1CCCC(C)N1C(=O)CSc1nnc(NC(=O)c2cccs2)s1 (stereo not given)
    0.1%, i, -0.9
Cn1c(CNc2nc(-c3ccccc3)cs2)nnc1SCC(=O)c1ccccc1
    -0.8%, i, 2
COc1ccccc1N1CCN(S(=O)(=O)c2ccc(F)cc2)CC1
    2.3%, i, 0.18
COc1ccc(C(c2nnnn2Cc2cccs2)N2CCC(C(N)=O)CC2)c(OC)c1 (stereo not given)
    -4.4%, i, -0.19
CCC1CCCCN1CC(=O)Nc1cc(C)nn1-c1nc(C)cc(C)n1 (stereo not given)
    5.3%, i, 0.55
CS(=O)(=O)c1sc2nc(-c3cccs3)cc(-c3ccccc3)c2c1N
    4.1%, i, -0.75
O=C(NCc1cccnc1)c1ccc(S(=O)(=O)N2CCOCC2)cc1
    -5.6%, i, 1.8
CCC(C)NC(=O)CC1Oc2ccc(Cl)cc2NC1=O (stereo not given)
    -0.3%, i, 0.83
COC(=O)c1cccc(NC(=O)C2COc3ccccc3O2)c1 (stereo not given)
    -1.3%, i, -0.2
COc1ccc(-n2c(Cc3cccn3C)nnc2SCC(=O)Nc2cccc(NC(C)=O)c2)cc1
    -2.9%, i, -0.6
Cc1cc(Br)ccc1OCC(=O)N(Cc1nc(-c2ccccc2)no1)C(C)C
    2.3%, i, -0.12
CC(Cc1ccccc1)N/C=C1\CC(=O)NC1=O (stereo not given)
    -3.1%, i, nt
Cc1ccc(S(=O)(=O)Cn2nnnc2C(C(C)C)N2CCSCC2)cc1 (stereo not given)
    -1.7%, i, -1.4
CCCN(CCC)CC(=O)NCC1(c2ccccc2)CCOCC1
    0.8%, i, nt
Cc1cc(C)n(-c2nc(NCC(C)O)c3c4c(sc3n2)CCCC4)n1 (stereo not given)
    1.1%, i, -0.3
COCCN(CCOC)Cc1c(C)[nH]c2ccccc2c1=O
    6.5%, i, 0.15
CCOC(=O)C1=C(C)NC(=O)NC1c1ccc(Cl)cc1Cl (stereo not given)
    -3.4%, i, 0.66
Cc1csc(NC(=O)CSc2nnc(-c3ccoc3C)o2)n1
    -4.8%, i, 0.7
C=CCn1c(O)c(N=NC(=S)Nc2cccc(C)c2)c2ccccc21
    1.5%, i, nt
O=C(CN1CCOc2ccccc21)N1CCN(c2cccc(Cl)c2)CC1
    7.1%, i, 1.1
CC(=O)Nc1cc(-c2nn3c(C)nnc3s2)ccc1C
    4.1%, i, -0.2
O=C(NCc1ccc(F)cc1)C1CCCN(C(=O)Nc2ccccc2)C1 (stereo not given)
    0.3%, i, 0.04
CCCCCCNC(=O)Cc1c(O)c2ccccc2[nH]c1=O
    -3.0%, i, -0.15
O=C(CCCCCN1C(=O)c2ccccc2C1=O)NCc1ccccn1
    -2.2%, i, 0.02
O=C(NC1CC1)C1CC(=O)N(C2CCCCC2)C1 (stereo not given)
    3.0%, i, 1.9
CC(=O)N1CCN(c2ccc(NC(=O)c3ccc(C(C)(C)C)cc3)cc2)CC1
    3.0%, i, -0.35
Cc1c(NC(=O)c2cnn3c2NC(c2ccccc2)CC3C(F)(F)F)c(=O)n(-c2ccccc2)n1C (stereo not given)
    1.6%, i, nt
Cc1ccc(C=NCc2ccncc2)c(O)c1
    0.5%, i, 1.1
